Assay outcomes deposited in PubChem by National Center for Advancing Translational Sciences (NCATS).
TRPML1 blocker: qHTS for Inhibitors of the Human Mucolipin Transient Receptor Potential 1 (TRPML1); Mucolipin-1 (Homo sapiens), Q9GZU1; TRPML1-inducible cells, Ca2+ dye fluorescence, FDSS; stronger effect = lower value; inhibition of EC80 agonist-evoked calcium signal; activity change, negative = inhibition, % (no concentration beside the values); 390,000 tested, 0.02% active; in the data active means activity change below about -50%; inconclusive means about -30% to -50%; inactive means above about -30%;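 also: stimulus is agonist 54-4 at its EC80 concentration; % is scaled to controls: 0 for no effect and ±100 for the full control effect; compound concentration not given in the record; the text of the record puts the active cut at -80%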
Target sequence (Q9GZU1 whole entry, looked up): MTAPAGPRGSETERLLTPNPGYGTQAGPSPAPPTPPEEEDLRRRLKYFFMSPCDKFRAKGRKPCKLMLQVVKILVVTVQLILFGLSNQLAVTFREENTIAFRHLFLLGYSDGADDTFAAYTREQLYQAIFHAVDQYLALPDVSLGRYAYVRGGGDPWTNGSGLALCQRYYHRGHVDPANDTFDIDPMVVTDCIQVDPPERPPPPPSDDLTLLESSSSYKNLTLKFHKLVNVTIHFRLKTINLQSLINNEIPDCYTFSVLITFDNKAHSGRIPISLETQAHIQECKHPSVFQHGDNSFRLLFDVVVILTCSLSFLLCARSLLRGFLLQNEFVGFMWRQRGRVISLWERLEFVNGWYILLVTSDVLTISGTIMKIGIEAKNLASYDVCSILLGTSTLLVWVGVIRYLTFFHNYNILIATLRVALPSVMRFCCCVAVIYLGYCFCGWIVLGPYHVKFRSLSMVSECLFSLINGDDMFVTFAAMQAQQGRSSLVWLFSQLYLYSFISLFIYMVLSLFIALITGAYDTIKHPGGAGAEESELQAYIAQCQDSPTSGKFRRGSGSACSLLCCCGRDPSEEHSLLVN
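Calcium fluorescence in TRPML1-DL cells induced overnight with Tet: a 110 s read after compound pin addition, then a 110 s antagonist read after challenge with 54-4 at 4 uM final (EC80).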
ClpP mod: qHTS Assay for Activators of ClpP; purified B. subtilis ClpP, FRET peptide cleavage, 20 min; Potency, µM (series often up to 57.5 µM), for inactives: at the top dose activity change, negative = active; 340,000 tested, 1.9% active; AID 651965, 2013; active = well fitted falling curve with a large enough effect; inconclusive = small, poorly fitted or top-dose-only effect; inactive = no such curve, though single readings can be large or run the other way; also: potency is read from the fitted curve at half-maximal effect; the source files actives as falling curves though it sought activators and does not explain the sign; nearly all actives have a fitted effect of over 65% in size; many hits overshoot -100%
Target sequence (P80244 whole entry, looked up): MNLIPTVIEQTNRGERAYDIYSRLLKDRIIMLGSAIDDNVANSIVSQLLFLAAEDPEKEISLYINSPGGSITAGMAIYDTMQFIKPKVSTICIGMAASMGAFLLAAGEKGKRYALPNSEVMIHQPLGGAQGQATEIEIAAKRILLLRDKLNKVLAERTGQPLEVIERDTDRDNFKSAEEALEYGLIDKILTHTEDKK
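FRET quenching reversal measured ClpP activation: 10 microg/mL B. subtilis ClpP at pH 8 with the FRET-FV decapeptide, read at 430 nm after 320 nm excitation. The 20-min minus 0-min signal was scaled between DMSO/no-enzyme wells and ADEP (5.8 microM final).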
Menin MLL FP FL: qHTS Assay for Inhibitors Targeting the Menin-MLL Interaction in MLL Related Leukemias: Competition With Fluorescein Labeled MLL-derived Peptide; Fluorescence polarization, fluorescein-MLL peptide displacement from menin; FP activity change, % at 61.4 µM; 290,000 tested, under 10 active; AID 1766, 2009; inconclusive = falling polarisation curve, or a change in total fluorescence; inactive = total fluorescence flat and polarisation flat or rising; no compound was filed as active; the % refers to the polarisation; negative = inhibition;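 also: % of control where 0% means no effect; inhibitors lower the polarisation; unlabelled MLL peptide was the positive control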
gsp antagonist: qHTS for Antagonists of gsp, the Etiologic Mutation Responsible for Fibrous Dysplasia/McCune-Albright Syndrome: qHTS; gsp-mutant cells, cAMP HTRF, 30 min; control for the full effect not named in the record; Potency, µM (doses to about 76.9 µM), for the others: at the top dose activity change, negative = inhibition, most hits filed as inhibitors; 340,000 tested, 0.4% active; AID 624288, 2012; active = falling curve of any shape with a large fitted effect; inconclusive = falling curve, mostly with a smaller effect; inactive = flat or rising curve; cell line not stated here;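 also: intracellular cAMP measured with PDE inhibitor Ro 20-1724 present during compound exposure; potency is read from the fitted curve at half-maximal effect; % is scaled to controls: 0 for no effect and ±100 for the full control effect; nearly all actives have a fitted effect of over 65% in size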
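G418-selected cells were plated in DMEM/10% FBS for 16-24 h at 37C, then treated with compounds plus the PDE inhibitor […] (300 uM solution added) for 30 min at 37C. Intracellular cAMP was measured by HTRF after 30 min lysis at room temperature.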
gsp agonist: qHTS for Agonist of gsp, the Etiologic Mutation Responsible for Fibrous Dysplasia/McCune-Albright Syndrome: qHTS. gsp mutant cells, cAMP HTRF, 30 min; control for the full effect not named in the record. Potency, µM (highest dose often 76.9 µM), without a hit: at the highest dose activation (cAMP increase), actives largely listed as activators. 340,000 tested, 0.13% active; active = well fitted activation curve with a large enough effect; inconclusive = small, poorly fitted or top-dose-only effect, or another doubt; inactive = no such curve, though single readings can be large or run the other way; cell line not stated here;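 also: phosphodiesterase inhibitor Ro 20-1724 added with compounds to block cAMP breakdown; potency is read from the fitted curve at half-maximal effect; nearly all actives have a fitted effect of over 60% in size; about a fifth of the inactives were tested at one dose only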
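Cells stably selected in G418 were plated at 2000/well, grown 16-24 hr, then given compounds in DMSO with the PDE inhibitor […] (300 uM solution added) for 30 min at 37C; cAMP was read by HTRF.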
TRPML1 ag: qHTS for Agonists of the Human Mucolipin Transient Receptor Potential 1 (TRPML1); AID 624414, 2012; 410,000 tested, 0.12% active; activation, % (no concentration beside the values); TRPML1-expressing cells, Ca2+ dye fluorescence, FDSS; host cell line not named in the record; reference of the full effect not given here; Mucolipin-1 (Homo sapiens), Q9GZU1; in the data active = activation above about 50%; inconclusive = about 30% to 50%; inactive = below about 30%; also: 0% is about no effect; the text of the record puts the active cut at 80%
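TRPML1-DL cells, Tet-induced overnight (~16 h, 37 degrees C), loaded 45-90 min at room temperature with Ca8 no-wash calcium dye plus quencher. FDSS fluorescence: 10 s baseline, compound pin-transfer, 110 s agonist read, then EC80 54-4 (4uM final) and 110 s antagonist read.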
* = called active by the depositor; ? = inconclusive; / = no result given; & = joins results of further samples; [ ] = another dose, or the depositor's remark.

SMILES | TRPML1 blocker | ClpP mod | Menin MLL FP FL | gsp antagonist | gsp agonist | TRPML1 ag
O=C(/C=C/c1cccc([N+](=O)[O-])c1)N1CCN(c2ccc(F)cc2)CC1 | 45 | 1.5% | 6.1 | -7% | -7% | 3.0
CC(C)(C)n1nnnc1C(c1cccnc1)N1CCOCC1 (stereo unspecified) | 2 | 2.2% | 3.7 | 4% | -27% | 0.0
O=C(Cc1ccc(Cl)cc1)NCCCn1ccnc1 | -8 | -0.1% | -1.2 | 12% | 25% | -0.4
CCOC(=O)N1CCC(NC(=O)c2ccc3c(c2)N(C)CCS3)CC1 | 7 | 28µM* | 0.4 | -22% | 26% | -0.8
CN(CC(=O)N1CC(=O)N(CCc2ccccc2)C(=O)C1)S(=O)(=O)c1cccc2nsnc12 | -4 | 0.3% | 0.0 | -12% | -4% | -0.4
COc1cccc(C(=O)NC2CC(C)(C)NC(C)(C)C2)c1OC | 11 | / | -2.0 | 2% | 8% | 0.3
O=C(CNCc1ccncc1)Nc1cc(S(=O)(=O)N2CCCCC2)ccc1Cl | -13 | -3.5% | 14 | -1% | -36%[inhibitor] | 1.0
CCOC(=O)c1c(C)n(-c2ccccc2)c2ccc(OC(=O)c3cccc(Cl)c3)cc12 | 22 | 1.9% | / | / | / | -0.6
O=C(NCc1ccco1)c1cccc(NS(=O)(=O)c2ccccc2F)c1 | 16 | -0.4% | 1.9 | 4% | 14%[15.4 µM] | -0.7
O=C(COC(=O)Cn1cnc2ccccc21)Nc1ccc2c(c1)C(=O)c1ccccc1C2=O | 14 | -1.3% | 4.1 | -9% | 8% | 0.0
FC(F)(F)c1cccc(N2CCN(C(=S)NC3CCCC3)CC2)c1 | -13 | 4.2% | 0.3 | -16% | 22% | -0.4
CC1(C)Cc2c(sc(NC(=O)C(=O)N3CCCC3)c2C(N)=O)CO1 | 10 | 0.0% | -5.0 | 11% | -15% | -0.2
COc1ccc(S(=O)(=O)N2CCCN(S(=O)(=O)c3ccc(OC)c(C)c3)CC2)cc1C | 0 | 0.0% | 0.8 | 0% | -37% | 2.8
Cc1cc(N2CCOCC2)ccc1/C=C1\SC(=O)N(C(C)C)C1=O | 2 | 0.1% | ? | -2% | -31%[inhibitor] | 1.9
COC(=O)C1=C(C)N(Cc2ccccc2)C(=NCC(C)C)N[C@H]1c1cccc(C(F)(F)F)c1 | -9 | 0.6% | / | 12% | 11% | 1.2
COc1ccc(-c2noc(-c3cccnc3)n2)cc1OC | -3 | / | 5.0 | 3% | 25%[15.4 µM] | 2.5
COC(=O)C1C(=O)CC(C)(O)C(C(=O)OC)C1c1ccc2c(c1)OCO2 (stereo unspecified) | 4 | -0.1% | -0.1 | 3% | -15% | 0.7
Cc1ccc(S(=O)(=O)N2CCC(=O)N(CCOC(=O)Nc3cc(C)cc(C)c3)CC2)cc1 | ? | -2.6% | -0.4&3.6 | -9% | -25% | 16
COc1cc(C)ccc1Oc1ccc([N+](=O)[O-])cc1 | 84 | 1.4% | / | -29% | 0% | 5.6
O=C(CSc1nnc(SCc2ccccc2Cl)s1)N/N=C/c1ccc(C(=O)O)cc1 | 25 | -2.4% | 0.8 | 1% | -5% | 1.0
CNC(=O)c1nc(C)n(-c2cc(Cl)ccc2Cl)n1 | 5 | -0.7% | -0.8 | 3% | 3% | -0.7
CCOC(=O)CSC(CC)C(=O)Nc1nnc(C(C)C)s1 (stereo unspecified) | -9 | -0.1% | 6.7 | -2% | -2% | -0.1
O=C(ON=C1CCSCC1)c1ccccc1 | 5 | -0.2% | / | 4% | 15% | -0.7
O=C(NCC1CCCO1)C1CCC(=O)N1Cc1ccccc1Cl (stereo unspecified) | -2 | -1.6% | 4.2 | 7% | 13% | -0.2
O=C(COc1ccc(F)cc1)Nc1ccccc1C(=O)OCc1cc(=O)n2ccsc2n1 | -16 | -11% | / | / | / | -0.5

Next section.
SMILES | TRPML1 blocker | ClpP mod | Menin MLL FP FL | gsp antagonist | gsp agonist | TRPML1 ag
CN(C)C(=O)CCc1ccc2c3c([nH]c2c1)[C@]1(C)[C@@H](C(=O)N2CCOCC2)C[C@H](CC(=O)NCC24CC5CC(CC(C5)C2)C4)C(=O)N1CC3 | 10 | -2.8% | / | -10% | / | 0.9
COc1ccc(C(=O)COC(=O)c2ccc(-n3cnnn3)cc2)c(OC)c1 | -11 | / | / | 10% | -2%[15.4 µM] | 0.9
c1ccc(CN2CCOCC2)cc1 | -6 | 0.3% | 1.4 | 6% | -20% | -0.4
CC1CCN(c2nc(NCc3ccco3)nc(N)c2[N+](=O)[O-])CC1 | 16 | -0.7% | 6.5 | 8% | 19%[15.4 µM] | 1.1
COC(=O)c1ccc(OC)c(CSc2nnc(-c3ccc(C(C)(C)C)cc3)o2)c1 | -3 | -5.5% | 0.5 | ? | -22% | 0.9
CC(C)C(NC(=O)c1ccccc1F)C(=O)NCCCn1ccnc1 (stereo unspecified) | -8 | -0.7% | / | 15% | 6%[15.4 µM] | 0.5
O=C(Nc1ccn([C@H]2CC[C@@H](CO)O2)c(=O)n1)c1ccccc1 | 7 | / | 1.2 | 5% | 16%[15.4 µM] | -0.3
O=C(Nc1ccc(Cl)c([N+](=O)[O-])c1)C(NCCCO)c1ccccc1 (stereo unspecified) | 9 | -0.4% | 4.1 | 7% | -16%[15.4 µM] | -0.2
CC(=O)C1=C(O)C(=O)N(c2nccs2)C1c1ccc(F)cc1 (stereo unspecified) | -3 | / | 0.6 | -4% | ? | -0.8
COc1ccc(NC(=O)CCNS(=O)(=O)c2cccc3nonc23)c(OC)c1 | 2&19 | 0.0% | 3.1 | -2% | -12%[15.4 µM] | -0.5&0.1
CC(C)CNS(=O)(=O)c1ccc(C(=O)Nc2ccc3c(c2)OCCO3)cc1 | 12 | 1.3% | 2.2 | -2% | -31%[inhibitor] | 0.7
COCCCn1c(C(=O)N2CC(C)OC(C)C2)cc2c(=O)n3cccc(C)c3nc21 (stereo unspecified) | -5 | 3.4% | -0.8 | 13% | ? | -0.1
c1cncc(-c2nnc3sc(C4CCCCC4)nn23)c1 | -8 | -1.8% | 1.9 | 21% | ? | -0.9
COCCNC(=O)c1cc2c(=O)n3cccc(C)c3nc2n(Cc2ccncc2)c1=N | -6 | 28% | 1.9 | 14% | 78% | -0.8
Cc1cccc(CSCCNC(=O)Nc2ccccc2)c1 | 47 | -1.0% | 9.5 | -23% | ? | 3.8
COc1ccc(CN(Cc2cc3cccc(C)c3n3nnnc23)C(=O)N2CCOCC2)cc1 | -19 | -8.7% | -1.7 | -8% | -20% | 1.0
Cc1ccccc1OCC(=O)NCCCNC(=O)c1ccccn1 | -15 | / | -0.2 | / | -26%[15.4 µM] | -0.1
COc1ccc(C(=O)N2CCN(C(=O)c3cc(OC)c(OC)c(OC)c3)CC2)cc1 | 16 | -0.6% | 5.1 | 5% | 5% | -0.5
O=C(Nc1ccncc1)Nc1ccc(Br)cc1Cl | -10 | -1.4% | 1.1 | -3% | ? | -0.1
Cn1cccc1CC(=O)N/N=C/C=C/c1ccco1 | 5 | -4.1% | 26 | 5% | -28% | 0.0
COc1ccc(C(=O)Nc2cc(C(C)C)c(O)c(S(=O)(=O)c3ccc(OC)cc3)c2C)cc1 | -4 | -0.5% | / | / | / | -0.3
CN(C)c1nc(-c2ccc([N+](=O)[O-])cc2)cs1 | -5 | 1.6% | 5.5 | -21% | 15% | -0.4
COc1ccc2c(c1)C(=O)N(c1ccccc1C)C(=O)C2(C)C | 4 | / | -0.5 | 0% | 11%[15.4 µM] | 1.0
CC1(C)CC(=O)C(CO)=C(c2cccc3ccccc23)C1=O | -3 | 2.4% | / | 0% | 7% | -0.8
COc1cccc(NS(=O)(=O)c2ccc3[nH]cc(C(=O)NCCc4ccc(C)cc4)c(=O)c3c2)c1 | -2 | -4.8% | / | / | / | 1.6

Single entries from the entries so far:
O=C(Nc1ccc(Cl)c([N+](=O)[O-])c1)C(NCCCO)c1ccccc1 (stereo unspecified) in TRPML1 ag reads -0.2
Cn1cccc1CC(=O)N/N=C/C=C/c1ccco1 in Menin MLL FP FL reads 26
COc1ccc(C(=O)COC(=O)c2ccc(-n3cnnn3)cc2)c(OC)c1 in gsp antagonist reads 10%

Further entries
SMILES | TRPML1 blocker | ClpP mod | Menin MLL FP FL | gsp antagonist | gsp agonist | TRPML1 ag
CCc1cc(CNC(=O)c2ccc(OC3CCN(CCc4ccccc4)CC3)cc2)on1 | 10 | -1.0% | -9.4 | 6% | -14% | 0.6
COC(=O)c1sccc1NC(=O)CC1C(=O)NCCN1C(=O)Nc1ccc(OCc2ccccc2)cc1 (stereo unspecified) | 3 | 0.0% | 4.5 | -6% | -36%[inhibitor] | 1.4
COc1ccc(C2C(C(=O)c3cccs3)=C(O)C(=O)N2c2nncs2)cc1 (stereo unspecified) | -23 | -1.2% | ? | 6% | ? | 24
Cc1cccc(C(=O)c2cccc(C)c2)c1 | 0 | 1.7% | / | 4% | -12% | 1.6
COc1ccc(CNC(=O)CCCN2C(=O)c3ccccc3C2=O)cc1 | -7 | -1.4% | -4.0 | 1% | -1% | 0.5
COc1cc(CCC(=O)OCC(=O)N(CC(C)C)C2CCS(=O)(=O)C2)cc(OC)c1OC (stereo unspecified) | -5 | -2.1% | / | -4% | 5% | -0.2
Cc1ccc(-c2csc(NC(=O)c3cccc([N+](=O)[O-])c3)n2)cc1 | 13 | -0.1% | 3.1 | 5% | -40%[inhibitor] | -0.1
CCOc1cccc(-c2csc(C3COc4ccccc4O3)n2)c1 (stereo unspecified) | -5 | -3.8% | -0.5 | 3% | 6% | 0.9
Cc1cccc(NC(=O)C2CCN(S(=O)(=O)c3cccc4nsnc34)CC2)c1 | 0 | 0.8%&2.4% | 5.0 | -12% | ? | -0.1
COCCN(C(=O)COC(=O)c1cc(C)oc1C)c1c(N)n(Cc2ccccc2)c(=O)[nH]c1=O | 13 | -1.7% | / | -1% | 2%[15.4 µM] | 0.7
N#CC(C#N)=Cc1cc2ccccc2nc1N1CCCCC1 | -7 | -10% | / | 0% | -7%[15.4 µM] | 0.2
CCOC(=O)c1c(C)oc2cc(Sc3ccccc3)c(O)c(O)c12 | -3 | 0.3% | / | -5% | 15% | 0.2
